miR-21 reporter – miR-21 reporter, rising signal | HeLa miR-21 FLuc reporter, luciferase, 48 h | Potency, µM (highest dose often 38.3 µM), for inactives: top-dose reporter change, positive = more light | 340,000 tested, under 10 active; active = well fitted rising curve with a large enough effect; inconclusive = small, poorly fitted or top-dose-only effect; inactive = no such curve, though single readings can be large or run the other way;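 note: % of control where 0% means no effect; miR-21 action dims this reporter so a rising signal means less miR-21 action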
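HeLa miR-21-FLuc reporter line, endogenous miR-21; 2000 cells/well in DMEM/10% FBS; compound titration up to ~40uM final, 48 h, 37 degree Celsius; luciferase detection reagent, 15 min lysis, CCD luminescence.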
Rango dissoc inh – prevents RanGTP from dissociating the Rango-importin beta complex; O95149+P62826; Biochemical FRET Rango-importin beta, RanGTP-induced dissociation; Potency, µM (top dose mostly 46.1 µM), for the others: at the top dose activity change, negative = inhibition; actives 0.071% (n = 340,000); AID 540253; active means falling FRET ratio curve, often poorly fitted, with flat reads before Ran was added; inconclusive means other falling curves, or compound fluorescence or quenching; inactive means flat or rising ratio curve;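 note: potency is the fitted concentration of half-maximal effect; % of control where 0% means no effect; nearly all actives have a fitted effect of over 45% in size; -100% = wells without RanGTP and RCC1; the record marks most hits as doubtful in a second field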
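Rango (0.1 uM)–importin beta (0.25 uM) complex; RanGTP-RCC1 trigger; 45 min RT; CFP/YFP FRET read.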
Rango-impB inh – inhibitors of Rango-importin beta complex formation. Q14974. Rango CFP/YFP FRET sensor + importin beta, 45 min. actives 0.031% (n = 340,000). Potency, µM (doses to about 92.2 µM), inactives show at the highest dose inhibition of complex formation; active = rising FRET ratio curve, often small or poorly fitted; inconclusive = mostly compound fluorescence or quenching in the first reads; inactive = flat curves in all reads;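 note: potency is the fitted concentration of half-maximal effect; 0% = DMSO wells and 100% = buffer wells lacking importin beta; nearly all actives have a fitted effect of over 15% in size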
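FRET biosensor Rango (snurportin 1 IBB between N-terminal EYFP and C-terminal Cerulean), 50 nM in PBS/1 mM DTT/0.02% Tween-20/0.1% BSA, preincubated 5 min RT with compound; 0.125 microM importin beta added, 45 min RT, CFP/YFP FRET ratio read.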
GLA inh pH 4.5 – inhibitors of human alpha-galactosidase A at pH 4.5. P06280. purified enzyme, 4-MU-alpha-Gal fluorescence, pH 4.5. activity change, negative = inhibition, % at 105 µM. 230,000 tested, under 10 active; inconclusive = small, poorly fitted or top-dose-only inhibition, or a rising curve; inactive = flat fitted curve, though single readings scatter; no compound was filed as active;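 note: 0% = full activity with enzyme and -100% = basal without enzyme; dose as in the result columns while the protocol names 77 µM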
Target sequence (P06280 whole entry, looked up): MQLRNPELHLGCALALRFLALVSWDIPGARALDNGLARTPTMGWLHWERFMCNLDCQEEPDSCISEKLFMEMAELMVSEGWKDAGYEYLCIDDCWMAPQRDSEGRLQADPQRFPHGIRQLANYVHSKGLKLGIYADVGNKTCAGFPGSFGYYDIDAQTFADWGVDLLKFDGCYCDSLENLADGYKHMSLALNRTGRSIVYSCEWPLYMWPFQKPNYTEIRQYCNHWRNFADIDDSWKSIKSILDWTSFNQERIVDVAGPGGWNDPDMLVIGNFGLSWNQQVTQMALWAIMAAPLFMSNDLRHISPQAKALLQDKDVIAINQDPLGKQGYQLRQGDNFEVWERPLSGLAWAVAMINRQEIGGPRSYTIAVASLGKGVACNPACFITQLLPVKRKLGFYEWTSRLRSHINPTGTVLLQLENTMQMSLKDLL
* = called active by the depositor; ? = inconclusive; / = no result given; [ ] = remark or other dose. Some of the compounds tested (hit frequency here may not be typical).

SMILES	miR-21 reporter	Rango dissoc inh	Rango-impB inh	GLA inh pH 4.5
c1ccc(CN2CCN(c3nc4ccccc4s3)CC2)cc1	-64%	24%	0.6%	/
CCCc1nnc(NC(=O)CC(=O)Nc2ccccc2C(=O)O)s1	0%	-14%	1.0%	0
CCN(CC)S(=O)(=O)c1ccc(C(=O)N(c2ccc(C)cc2)C2C=CS(=O)(=O)C2)cc1 (stereo not given)	-2%	-4%	-0.3%	-3
O=C(CCS(=O)(=O)c1ccccc1Cl)NCc1ccc(F)cc1	-1%	10%	1.7%	1
COc1ccc(OCC(=O)Nc2cc3c(cc2C(=O)O)OCCCO3)cc1	-6%	-6%	1.0%	/
COc1cc(OC)cc(C(=O)N/N=C2/SCC(=O)N2Cc2ccco2)c1	2%	-16%	-1.9%	0
CC(=O)Nc1ccc(S(=O)(=O)N[C@H](C(=O)O)C(C)C)cc1	-2%	10%	1.2%	1
COC(=O)c1sc(-c2ccccc2)cc1NC(=O)c1cc(OC)cc(OC)c1	-4%	-1%	-5.4%	5
Fc1cccc(/C=N/Nc2nncc3ccccc23)c1	-54%	7%	0.0%	/
COc1ccc(S(=O)(=O)N2CCCC2CNC(=O)C(=O)NC2CCCCCC2)cc1 (stereo not given)	/	-11%	1.5%	/

Part of the list above in order of number of heavy atoms, descending:
SMILES	miR-21 reporter	Rango dissoc inh	Rango-impB inh	GLA inh pH 4.5
CCN(CC)S(=O)(=O)c1ccc(C(=O)N(c2ccc(C)cc2)C2C=CS(=O)(=O)C2)cc1 (stereo not given)	-2%	-4%	-0.3%	-3
COc1ccc(S(=O)(=O)N2CCCC2CNC(=O)C(=O)NC2CCCCCC2)cc1 (stereo not given)	/	-11%	1.5%	/
COc1ccc(OCC(=O)Nc2cc3c(cc2C(=O)O)OCCCO3)cc1	-6%	-6%	1.0%	/
CCCc1nnc(NC(=O)CC(=O)Nc2ccccc2C(=O)O)s1	0%	-14%	1.0%	0
O=C(CCS(=O)(=O)c1ccccc1Cl)NCc1ccc(F)cc1	-1%	10%	1.7%	1
Fc1cccc(/C=N/Nc2nncc3ccccc23)c1	-54%	7%	0.0%	/

(further entries)
SMILES	miR-21 reporter	Rango dissoc inh	Rango-impB inh	GLA inh pH 4.5
COc1cccc(S(=O)(=O)NCc2ccc(C(=O)Nc3cccc(Cl)c3)cc2)c1	25%	5%	-1.0%	-8
CN(C)S(=O)(=O)c1cccc(N=C2NN=C(c3ccccc3)CS2)c1	?	-4%	1.2%	-13
Cc1ccc(C)c(NC(=O)CN(C)C(=O)C2CCN(C(=O)Nc3ccccc3)CC2)c1	/	15%	-0.8%	/
Cc1ccc(SCc2cc(=O)c3c(=O)n(-c4ccccc4)[nH]c3[nH]2)cc1	3%	-11%	2.5%	-15
Nc1ccc(-c2nc3ccccc3s2)cn1	-62%	-16%	1.4%	/
COc1ccc2c(c1)CCc1c(C(=O)NC3CCCCC3)noc1-2	-47%	15%	2.7%	-11
Cc1csc(NC(=O)CSc2ccc(-c3ccccn3)nn2)n1	7%	7%	1.3%	-8
O=C(Nc1ccc(Cl)cc1Cl)N1CCN(c2ncccn2)CC1	-26%	-12%	-1.2%	-5
CCn1cc(/C=N/NC(=O)COc2cccc3cccnc23)c2ccccc21	-17%	1%	-1.4%	0
O=C1Nc2cc(C(=O)N3CCC(N4CCCCC4)CC3)ccc2S/C1=C\c1ccccc1	15%	-5%	1.7%	/
S=C(Nc1ccc(Cl)cc1)N1CCN(Cc2ccccc2)CC1	4%	19%	3.6%	1
COc1ccccc1N(CC(=O)Nc1ccc2c(c1)OCO2)S(=O)(=O)c1ccccc1	3%	9%	-1.2%	-2
CCc1ccc(-n2nnnc2SCC(=O)NNC(=O)c2ccco2)cc1	-1%	2%	2.0%	11
CCOc1ccc(N2C(=O)CSC2=S)cc1	-6%	0%	-1.3%	/
Cn1c(NC(=O)c2ccc(Cl)cc2)cc(=O)n(C)c1=O	-9%	-9%	1.1%	4
COc1ccc(-c2cc(=O)c3ccccc3s2)cc1	-35%	0%	3.7%	1
Cc1c(NC(=O)COC(=O)CCc2c[nH]c3ccccc23)c(=O)n(-c2ccccc2)n1C	2%	-5%	1.1%	/
CCCCNCC1CCCO1 (stereo not given)	-1%	0%	-0.1%	-13
O=C(CCCCCCCC(=O)N1CCCC1)N1CCCC1	/	-21%	3.1%	/
CCOc1cc(N2CCOCC2)c(OCC)cc1NC(=O)CN1CCC(Cc2ccccc2)CC1	-7%	10%	4.4%	-5
Cc1ccc(-n2c(=O)c3sccc3n(CC(=O)NC3CCCC3)c2=O)cc1	-2%	-12%	2.5%	/
CCOc1cc(C(=O)Nc2cc(C)ccc2C)ccc1OCC(=O)N1CCCCC1	1%	-14%	2.6%	8
CCOC(=O)c1ccc(S(=O)(=O)N2CCN(C)CC2)cc1	-6%	6%	3.2%	-11
COc1ccc(NC(=O)CSCc2ccc(C)cc2)cc1	-10%	8%	-2.3%	0
O=C(CNC(=O)c1cccc(F)c1)NC1CC1	/	-3%	1.5%	/
Oc1ccc(N=Nc2ccc3c(c2)OCCO3)c(O)c1	21%	12%	-0.1%	-3
OCc1cccc[n+]1Cc1ccccc1	/	7%	2.2%	/
Cc1ccc(C)c(NC(=O)COC(=O)c2c(C)nn(-c3ccccc3)c2C)c1	/	19%	1.0%	/
O=C(COc1ccc(S(=O)(=O)NC2CCCCC2)cc1)NC1CCCCC1	-2%	7%	-3.4%	-7
N/C(=N\OC(=O)c1ccccc1Cl)c1cccc([N+](=O)[O-])c1	-39%	2%	-0.7%	/
CCOC(=O)c1cnc2ccc(OCC)cc2c1NCc1ccccc1	6%	-14%	2.1%	5
CCCOc1ccc2c3c(c(=O)oc2c1OCCC)CCCC3	-7%	-13%	2.5%	-2
CC(Nc1ccc(Br)cn1)c1cc(Cl)ccc1O (stereo not given)	1%	14%	-2.1%	-8
Cc1ccc2c(c1)N(CC(=O)Nc1ccccc1F)C(=O)CO2	0%	2%	1.5%	/
CCN1CCN(c2ncc3c(n2)CC(c2ccc(OC)c(OC)c2)CC3=O)CC1 (stereo not given)	19%	-4%	-0.6%	9
Cc1ccccc1NC(=O)Cc1nc(COC(=O)c2cccnc2Cl)cs1	/	-17%	-1.2%	/
O=C(COc1ccc(Cl)cc1Cl)N1CCNC1=O	/	-4%	-0.6%	/
Cc1ccc(NC(=O)C(C)Sc2nc(-c3ccccc3)cc(=O)[nH]2)cc1 (stereo not given)	-3%	-6%	-0.3%	/
NNc1nc(Nc2ccc([N+](=O)[O-])cc2)nc(N2CCCCCC2)n1	2%	15%	-4.0%	/
CCCN(c1nc(C)cc(OC)n1)S(=O)(=O)c1ccccc1	-2%	5%	0.2%	1
CC(C)NC(=O)Cn1nc(C(F)(F)F)c2c1CCC2	0%	-9%	-1.2%	2
CC[C@H]1C(=O)[C@@H](Cc2ccccc2)[C@@H]2CCN3C(=O)CCC[C@H]1[C@H]23	/	5%	4.4%	/
CC(C)c1ccc(NC(=O)C2C3C=CC4(O3)C2C(=O)N(CCCN2CCOCC2)C4C(=O)NC2CCCCC2)cc1 (stereo not given)	7%	34%	-4.4%	/
CCCN1CNC(=S)N(c2ccc(C(=O)OCC)cc2)C1	14%	-2%	0.4%	-2
CC(Oc1ccccc1)c1nnc(SCC(=O)NC2CC2)n1C (stereo not given)	-1%	3%	-0.1%	/
CC(=O)Nc1ccc(OC(=O)Oc2ccc(NC(C)=O)cc2)cc1	-8%	-8%	4.3%	7
CC(C)OC(=O)c1c(NS(=O)(=O)c2ccccc2)sc2c1CCCC2	2%	-16%	5.0%	-2
Nc1c(Br)cc2c([nH]c(=O)c3ccccc32)c1Br	/	3%	-0.8%	/
CCOC(=O)C/C(N)=N/N(C)c1ncc(C(F)(F)F)cc1Cl	0%	-1%	-2.8%	0
Cc1ccc(NC(=O)CSc2nc3c(c(=O)[nH]2)CN(Cc2ccc(F)cc2)CC3)cc1C	-5%	-20%	-1.0%	-1
(list continues)
SMILES	miR-21 reporter	Rango dissoc inh	Rango-impB inh	GLA inh pH 4.5
O=S(=O)(c1ccccc1)N1CCN(Cc2ccc(Cl)cc2)CC1	4%	-4%	1.1%	/
O=C(Cn1cnc([N+](=O)[O-])c1)Nc1ccccc1C(F)(F)F	1%	8%	0.3%	/
CCOc1ccc(N(CC)C(=O)COc2cc(=O)n(C)c3ccccc23)cc1	-2%	0%	3.1%	-12
COc1ccc(-c2nn(-c3ccccc3)cc2C(=O)Nc2nccs2)cc1	17%	-6%	1.1%	0
CCn1cc(C(=O)Nc2ccc(OC)c(S(=O)(=O)N3CCCCC3)c2)c(=O)c2ccc(C)nc21	-6%	20%	-5.0%	7
COc1cccc(C(=O)N/N=C(/c2ccccc2)c2ccccn2)c1	16%	2%	3.4%	-6
Nc1ccc2c(c1)C(=NO)c1ccccc1-2	/	6%	-2.0%	/
CC(C)(C)c1ccc(S(=O)(=O)NCC(=O)Nc2ccc(-c3nc4ccccc4s3)cc2)cc1	-47%	0%	0.4%	2
O=C(O)C[C@H]1c2cc(F)ccc2S(=O)(=O)N1C1CCN(Cc2ccccc2)CC1	/	1%	0.3%	/
Cc1ccc(S(=O)(=O)N/N=C(\c2ccccc2)C2CC2)cc1	-1%	0%	-1.1%	/
O=C(NCC1CCCO1)c1ccccc1NS(=O)(=O)c1cccc([N+](=O)[O-])c1 (stereo not given)	/	-6%	0.2%	/
CCOC(=O)c1c(C)[nH]c(C)c1C(=O)COC(=O)c1ccc(O)cc1	-10%	-5%	-2.0%	-8
COc1cccc(C2=NOC(C(=O)NC(C)(C)C)C2)c1 (stereo not given)	-6%	5%	-3.1%	-2
O=C(COC(=O)c1cc([N+](=O)[O-])ccc1N1CCOCC1)NC1CCCCC1	/	4%	-0.1%	/
CC(CCN1CCC(CN2C(=S)NCC2Cc2ccccc2)CC1)c1ccccc1 (stereo not given)	/	-7%	3.7%	/
Cc1nn(-c2ccccc2)c(C)c1CNC(=O)c1ccc(S(=O)(=O)NCc2ccco2)cc1	/	-2%	-0.8%	/
Cc1c(Cl)cnn1CC(=O)NC1C(=O)N2C(C(=O)O)=C(CSc3nnnn3C)CSC12 (stereo not given)	4%	10%	3.0%	5[21.1 µM]
CCOC(=O)N1CCN(C(=O)C2CC(c3cc(OC)ccc3OC)=NO2)CC1 (stereo not given)	2%	8%	-4.0%	4
Cc1nc(Nc2ccccc2)[nH]c(=O)c1CCC(C)C	-3%	-3%	-1.4%	-4
Cc1cccc(C(=O)OC(C)CN2CCCC2)c1 (stereo not given)	-3%	-4%	?	/
N#Cc1ccccc1CCN1C(=O)c2ccccc2C1=O	-18%	-11%	1.8%	/
CNc1cnn(-c2ccccc2)c(=O)c1Cl	-25%	16%	-4.0%	-3
COc1ccc(C(=O)C(C)OC(=O)COc2ccccc2)cc1 (stereo not given)	/	-19%	3.3%	/
CCOc1ccccc1C(=O)NC(CO)C(=O)O (stereo not given)	0%	-9%	-2.4%	3
CC(=O)Nc1ccc(NC(=O)C(C)OC(=O)/C=C/c2cn(-c3ccccc3)nc2-c2cccnc2)cc1 (stereo not given)	-4%	14%	2.9%	4
CCCC(=O)NC(c1cccs1)c1cc(Cl)c2cccnc2c1O (stereo not given)	?	4%	?	-6
O=C(NC1CCS(=O)(=O)C1)c1ccc(S(=O)(=O)NCC2CCCO2)cc1 (stereo not given)	0%	12%	-0.8%	-3
O=C(CC(NS(=O)(=O)c1ccc(Cl)cc1)c1ccco1)N1CCc2ccccc21 (stereo not given)	0%	-11%	2.0%	-14
COc1ccc(CNC(=S)Nc2ccc(F)c(Cl)c2)cc1OC	9%	-19%	3.3%	-9
COc1ccc(Cc2n[nH]c(=S)n2NC(=O)Nc2ccc(Cl)c(Cl)c2)cc1	-12%	0%	-1.0%	9
CC(C)CC1(C)N=C(c2ccccc2)C(=S)N1 (stereo not given)	-2%	-9%	-1.3%	4
Cc1ccc2c(CN3CCN(S(=O)(=O)/C=C/c4ccccc4)CC3)cc(=O)oc2c1	-4%	7%	-2.8%	8
CS(=O)(=O)Nc1cccc(C2=NN(C(=O)c3ccccc3Cl)C(c3ccccc3O)C2)c1 (stereo not given)	-3%	0%	8.1%	1

Screening results as filed in PubChem.
